Screening results (PubChem)
VDR inh: inhibitors of human vitamin D receptor. VDR-SRC2-3 peptide fluorescence polarization, 2 h. P11473. Potency, µM, for inactives: max response, negative = inhibition, usual class: inhibitors. hit rate 0.93% among 400,000; active means well fitted inhibition curve with a large enough effect; inconclusive means small, poorly fitted or top-dose-only effect, or another doubt; inactive means no such curve, though single readings can be large or run the other way; further: series mostly up to about 120 µM
Target sequence (P11473 whole entry, looked up): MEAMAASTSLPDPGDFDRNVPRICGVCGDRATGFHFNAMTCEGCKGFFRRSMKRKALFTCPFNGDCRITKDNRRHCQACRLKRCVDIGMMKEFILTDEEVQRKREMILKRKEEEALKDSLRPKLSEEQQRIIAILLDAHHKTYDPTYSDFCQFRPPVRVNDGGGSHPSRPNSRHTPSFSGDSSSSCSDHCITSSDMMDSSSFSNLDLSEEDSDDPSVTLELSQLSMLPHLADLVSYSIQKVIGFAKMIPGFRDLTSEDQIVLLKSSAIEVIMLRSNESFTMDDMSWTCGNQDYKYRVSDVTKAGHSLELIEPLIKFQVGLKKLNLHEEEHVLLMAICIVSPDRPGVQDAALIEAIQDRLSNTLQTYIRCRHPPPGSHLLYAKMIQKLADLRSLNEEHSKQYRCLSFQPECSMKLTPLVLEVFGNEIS
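Inhibition of the VDR/SRC2-3 peptide interaction is quantified by fluorescence polarization. Compounds (23 nl, pintool) incubate with the reagents for 2 hours at ambient room temperature.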
* = called active by the depositor; ? = inconclusive; & = joins results of further samples. On the % scale 0 is the no-effect control and ±100 the full control effect; potency means the concentration at half of the fitted maximal effect.

SMILES	VDR inh
Cc1ccc(C(=O)NCc2ccc3c(c2)OCO3)o1	1.1%
O=C(NCc1cn2ccsc2n1)Nc1cccc(Cl)c1	2.7%
COc1ccccc1CC(=O)Nc1ccc(-c2noc(COc3cccc(C)c3C)n2)cc1	-19.8%
Cc1oc2ccc(O)cc2c1C(=O)OC(C)C	-7.2%
COC(=O)c1sc(NC(=O)CSc2nnc(Cn3nnc4ccccc43)n2C)nc1C	17.0%
COc1ccc(OC)c(NC(=O)CSC2=Nc3ccccc3C3=NC(CCC(=O)NCCc4ccccc4)C(=O)N23)c1 (configuration not stated)	7.2%
CC(=O)Nc1ccc(/C=C/c2nc(-c3ccccc3O)n(-c3ccccc3)n2)cc1	4.1%
O=C(Nc1cccc(S(=O)(=O)N2CCOCC2)c1)c1cnn2c(C(F)F)cc(-c3ccccc3)nc12	-12.6%
CC(=O)N(CCS(=O)(=O)c1ccc(Cl)cc1)Cc1cccs1	?
CN(Cc1ccccc1)C(=O)COc1ccc(C(C)(C)C)cc1	5.9%
CCOC(=O)N1CCN(c2c(NCCc3ccc(C)cc3)c(=O)c2=O)CC1	3.0%
O=C(O)C1CCCCC1C(=O)Nc1cnn(Cc2ccccc2)c1 (configuration not stated)	3.4%
CCCN(CCC)c1c([N+](=O)[O-])c(=O)oc2ccccc12	6.5%
CC(=O)c1cccc2c(O)c(C3=Nc4ccccc4C3=O)[nH]c12	56.2µM*
Cc1cccc(OCCC(=O)Nc2ccc(C)c(S(=O)(=O)N3CCOCC3)c2)c1	-10.6%
CN(Cc1nc(-c2cnccn2)no1)Cc1n[nH]c2c1CCCC2	2.5%
CC(OC(=O)Cc1coc2ccc3ccccc3c12)C(=O)Nc1ncc(Cl)cc1Cl (configuration not stated)	-5.9%
O=C(OCC(=O)N1CCOCC1)c1ccccc1OCc1ccc(Cl)cc1	-10.9%
CC(NC(=O)COc1ccc(S(=O)(=O)N2CCOCC2)cc1)c1ccccc1 (configuration not stated)	-13.0%
COC1CCN(C(=O)c2ccc3oc(Cc4ccc(Cl)cc4)nc3c2)CC1	-9.5%
COc1cccc(C(=O)NC(=S)Nc2ccc([N+](=O)[O-])cc2C)c1	?
O=C(NCc1cccs1)C1CCN(c2nc3ccccc3o2)CC1	-3.7%
C#Cc1cccc(NC(=O)C2CCN(C(C)=O)CC2)c1	-0.5%
CC(C)c1nc2cc(C(=O)N3CCNC(=O)C3c3ccc(F)cc3)ccc2o1 (configuration not stated)	-6.1%
CCOC(=O)C1=C(COC(=O)CCS(=O)(=O)c2ccc(C)cc2)NC(=O)NC1C (configuration not stated)	-15.9%

(list continues)
SMILES	VDR inh
Cc1nc(-c2ccc(S(=O)(=O)N3CCN(c4ccc(F)cc4)CC3)cc2)co1	0.9%
COc1ccc(CNC(=O)CSc2ncc(S(=O)(=O)c3ccc(Br)cc3)c(=O)[nH]2)cc1	-12.2%
O=C(COC(=O)C1(c2ccccc2)CC1)N1CCN(c2ccc(F)cc2)CC1	-16.5%
CCOC(=O)N1CCN(S(=O)(=O)c2ccc(C(=O)N(CCN(C)C)c3nc4c(C)cccc4s3)cc2)CC1	-13.5%
CCn1c(Cc2cccs2)nnc1SCC(=O)NC(C)(C)C	3.6%
CCOC(=O)c1ccc(-n2nc(C)cc2C)cc1	1.0%
CC1CCC(Nc2ncnc3onc(-c4ccc(F)cc4)c23)CC1 (configuration not stated)	12.3%
O=C(NCc1ccncc1)c1ccc(Oc2ccccc2)cc1	-26.1%
CCN(CC)S(=O)(=O)c1ccc(OC)c(NC(=O)CSCc2c(C)noc2C)c1	-7.0%
COc1cc(/C=C(/C#N)C(=O)Nc2ccccc2)ccc1OCc1ccc(C(=O)O)cc1	-2.8%
O=C(O)CSCC(=O)N1N=C2/C(=C/c3ccccc3)CCCC2C1c1ccccc1 (configuration not stated)	-12.1%
O=C(CSc1nc2ccccc2c(=O)[nH]1)Nc1cccc([N+](=O)[O-])c1	0.7%
O=C(O)CC(NC(=O)Cc1ccccc1)c1ccccc1 (configuration not stated)	3.8%
CN(C(=O)COC(=O)c1ccc(S(=O)(=O)N2CCOCC2)cc1)c1ccccc1	0.4%
O=C(O)C1CC=CCC1C(=O)Nc1ccc(Oc2ccc(Cl)cc2)cc1 (configuration not stated)	-19.4%
Cc1ccc(NC(=O)C(C)N2C(=O)C3CC=C(Cl)CC3C2=O)cc1 (configuration not stated)	-9.9%
Cc1cccc(C(=O)NC2=NC(c3ccc(Cl)cc3)CC(=O)N2)c1 (configuration not stated)	0.7%
CN1CCN(C(=O)Cn2c(C(F)(F)F)nc3ccccc32)CC1	-3.4%
Cc1cccc(C)c1OCC(=O)Nc1ccc(N2CCOCC2)cc1	-1.9%
CCOc1ccccc1-c1ccc(C(=O)NCc2ccccc2)o1	-15.5%
CCN(C(=O)Cn1cc(C(=O)c2ccc(F)cc2)c(=O)c2ccc(C)nc21)c1cccc(C)c1	1.0%
COC(=O)c1nnn(-c2ccccc2)c1N	15.6%
O=C(Nc1ccccc1)N1C2CCC1CC(O)(c1cccnc1)C2 (configuration not stated)	-0.3%
Cc1ccc(SCC(=O)OCc2csc(CC(=O)Nc3ccccc3C)n2)cc1C	15.6%
Cc1ccc2[nH]c(=O)c(C3=NN(C(=O)CCC(=O)O)C(c4cccs4)C3)c(-c3ccccc3)c2c1 (configuration not stated)	-12.2%

The listing continues:
SMILES	VDR inh
CCCCNC(=O)c1cc2c(C)cc(C)cc2[nH]1	-7.8%
C[C@@](N)(C(=O)O)c1ccc(S(=O)(=O)O)cc1	10.5%
Cc1ccc(C(=O)C(C)OC(=O)CCS(=O)(=O)c2ccc(C)cc2)cc1 (configuration not stated)	-14.4%
Cc1nc2ccccc2cc1C(=O)N/N=C/c1ccc([N+](=O)[O-])cc1	6.0%
COc1ccc(C2N(C(=O)c3ccccc3)CCN2C(=O)c2ccc(C)cc2)cc1 (configuration not stated)	-12.4%
COCCN(Cc1ccco1)C(=O)c1cc2c(=O)[nH]c3ccc(C)cc3c2s1	-8.8%
Cc1cc(C(=O)N/N=C/c2ccc(O)c([N+](=O)[O-])c2)n[nH]1	7.3%
O=C1OC(c2ccc(F)cc2)=C/C1=C\c1ccc(O)cc1	-10.0%
O=C(NCc1ccco1)c1ccccc1-c1ccc(C(F)(F)F)cc1	-13.1%
O=C(NCCCO)C(=O)NCCc1ccc(Cl)cc1	-13.0%
Cc1ccc(NC(=O)COc2ccccc2C(=O)NCc2ccccc2)cc1	11.7%
Cc1c(NC(=O)C(C)Sc2ccccc2)c(=O)n(-c2ccccc2)n1C (configuration not stated)	8.3%
COc1ccc(CN2CCS(=O)(=O)CC2)cc1OC	-23.6%
CCC(=O)N1CCc2cc(CNC(=O)Nc3ccc(OC)cc3OC)ccc21	10.7%
CCOCC(=O)Nc1cc(C(=O)Nc2cccc(C)c2C)ccc1Cl	-15.1%
COc1ccc(C(CCN2CCCCC2)c2c(O)cc(OC)cc2OC)cc1 (configuration not stated)	-17.3%&-8.3%
COc1ccc(Nc2nnc(-n3nc(C)cc3C)c3ccccc23)cc1	24.0%
COc1ccc(C(=O)NC(C)c2ccc(-n3ccnc3)cc2)cc1[N+](=O)[O-] (configuration not stated)	20.7%
C[C@@]12C(=O)N(c3ccc(Br)cc3)C(=O)N1[C@@H]1c3ccccc3OC[C@@H]1[C@H]2c1ccccc1	-8.4%
CCC(=O)n1nc(-c2ccccc2)nc1NCc1ccccc1	18.1%
Cc1cccc(C)c1-n1c(C)cc(/C=C2\NC(=O)NC2=O)c1C	-7.3%
COc1ccccc1Oc1c(C)oc2c(CN3CCOCC3)c(O)ccc2c1=O	12.5%
CCOC(=O)c1sc(NC(=O)c2ccc(S(=O)(=O)N(C)C)cc2)cc1C	-0.9%
CCOC(=O)c1ccc(-c2ccc(/C=C(\C#N)c3nc4ccc(C)cc4[nH]3)o2)cc1	-11.5%
Cc1nc2ccc(NS(=O)(=O)c3ccc(Br)cc3)cc2s1	-19.5%

Additional structures
SMILES	VDR inh
Cc1nn(C)c(C(=O)N2CCc3ccccc32)c1Cl	-1.2%
CC(C(=O)N(C)c1ccccc1)N1CCN(C(=O)c2ccccc2)CC1 (configuration not stated)	12.5%
C=CCN([C@@H](CC(C)C)C(=O)OC)S(=O)(=O)N(CC=C)[C@@H](CC(C)C)C(=O)OC	-5.7%
O=C(COCc1cc(-c2ccc(F)cc2)on1)Nc1cc(Cl)cc(Cl)c1	10.6%
Cc1ccc(-n2c(SCc3ccccc3F)nc3[nH]ncc3c2=O)cc1Cl	11.0%
COCC(=O)N/N=C/c1ccc(Sc2nc3ccccc3s2)o1	-1.9%
COc1ccc(NC(=O)c2ccc(OC(F)F)cc2)cc1Cl	-11.6%
CC(=O)Nc1ccc(NC(=O)c2ccccc2N(C)S(C)(=O)=O)cc1	6.1%
Cc1noc(C)c1S(=O)(=O)N(C)C[C@H]1Oc2ccc(NC(=O)Cn3cnnn3)cc2C(=O)N([C@H](C)CO)C[C@@H]1C	-15.1%
Cc1ccc(-c2n[nH]c3c2C(c2ccccc2Cl)N(c2ccc(C(=O)O)cc2)C3=O)cc1 (configuration not stated)	-18.8%
COc1cc(NC(=O)C2=COCCO2)c(OC)cc1Cl	4.7%
C=CCn1c(SCc2csc(C)n2)nc2sc3c(c2c1=O)CCCCC3	-1.2%
Cc1nc(-c2ccccc2OC(F)(F)F)[nH]c(=O)c1Cl	-10.7%
O=C(NCc1ccccc1)c1cccc(NC(=O)c2ccco2)c1	8.2%
COc1ccccc1CCNC(=O)C(=O)NCC1OCCN1S(=O)(=O)c1ccc(F)cc1 (configuration not stated)	-1.6%
CSC(=S)N/N=C(\C)c1ccc(Br)cc1	-3.5%
O=C(NCC(F)(F)F)c1ccc(S(=O)(=O)N2CCN(C(=O)C3CCCO3)CC2)cc1 (configuration not stated)	-20.7%
CN(C(=O)CC(NC(=O)c1ccccc1)(c1ccccc1)c1ccccc1)c1ccccc1	-16.2%
FC(F)(F)c1nnc2c(Sc3ccccc3)nc3ccccc3n12	16.8%
CC(=O)OCCNc1cc(SCc2ccco2)c2nonc2c1[N+](=O)[O-]	-27.2%
O=C(OCn1nnc2ccccc2c1=O)C12CC3CC(CC(O)(C3)C1)C2	0.3%
COc1ccc2c(CC(=O)OCC(=O)NC(N)=O)coc2c1	-7.4%
C=CCNC1=C2C[C@@H](C)C[C@H](OC)[C@H](O)[C@@H](C)/C=C(\C)[C@H](OC(N)=O)[C@@H](OC)/C=C\C=C(/C)C(=O)NC(=CC1=O)C2=O	?
COC(=O)c1cc(Br)c(=O)n(-c2nccs2)c1	-24.1%
O=c1c([N+](=O)[O-])c[nH]c2ccccc12	6.4%

VDR inh: entries above that show a hit
SMILES	VDR inh
CC(=O)c1cccc2c(O)c(C3=Nc4ccccc4C3=O)[nH]c12	56.2µM*

Structural class, the entries above with a thiophene ring, fused or not
SMILES	VDR inh
CC(=O)N(CCS(=O)(=O)c1ccc(Cl)cc1)Cc1cccs1	?
O=C(NCc1cccs1)C1CCN(c2nc3ccccc3o2)CC1	-3.7%
CCn1c(Cc2cccs2)nnc1SCC(=O)NC(C)(C)C	3.6%
Cc1ccc2[nH]c(=O)c(C3=NN(C(=O)CCC(=O)O)C(c4cccs4)C3)c(-c3ccccc3)c2c1 (configuration not stated)	-12.2%
COCCN(Cc1ccco1)C(=O)c1cc2c(=O)[nH]c3ccc(C)cc3c2s1	-8.8%
CCOC(=O)c1sc(NC(=O)c2ccc(S(=O)(=O)N(C)C)cc2)cc1C	-0.9%
C=CCn1c(SCc2csc(C)n2)nc2sc3c(c2c1=O)CCCCC3	-1.2%

Following part.
SMILES	VDR inh
O=C(CSc1nccn1-c1cccc(Cl)c1)Nc1ccc2c(c1)OCO2	11.2%
Cc1ccc2c(c1)c(=O)c(C(=O)c1ccc3c(c1)OCO3)cn2Cc1cccc(F)c1	6.4%
Cc1ccccc1OC(=O)C1C(c2ccccc2)C(C(=O)O)C1c1ccccc1 (configuration not stated)	5.2%
COc1cc(C)nc(Oc2ccc(OCCOc3ccc(C)cc3)nn2)n1	0.6%
O=C(NCC1CCOCC1)c1cc(COc2ccc(F)cc2F)on1	5.9%
CC1CCN(C(=O)C2CCN(C(=O)c3cc4sccc4n3Cc3ccc(F)cc3)CC2)CC1	21.6%
COc1ccc(OC(C)C(=O)Nc2ccccc2F)cc1 (configuration not stated)	-6.7%
CC(C)c1csc(CN2CCN(Cc3ccccc3)C(CCO)C2)n1 (configuration not stated)	19.0%
Cc1cc(C(C)(C)C)cc(C)c1S(=O)(=O)N1CC(=O)Nc2ccccc21	-0.6%
O=C(COC(=O)c1ccc(F)cc1)NCC1COc2ccccc2O1 (configuration not stated)	-7.0%
COc1ccccc1CNC(=O)CCN1C(=O)c2ccccc2C1=O	-18.4%
COc1ccc(NC(=O)CSc2oc(-c3ccco3)nc2S(=O)(=O)c2ccccc2)c(OC)c1	0.7%
CCN(C(=O)COC(=O)c1n[nH]c2ccccc12)c1ccccc1	-18.9%
Cc1ccc(C(=O)COC(=O)c2cn3ccccc3n2)cc1	-15.4%
O=C(CSc1nncn1-c1cccnc1)Nc1cccc(C(F)(F)F)c1	-20.3%
Cc1c(NC(=O)C(C)OC(=O)c2ncc(Cl)c(Cl)c2Cl)c(=O)n(-c2ccccc2)n1C (configuration not stated)	-8.2%
Cc1ccc(S(=O)(=O)NCC(=O)OCC(=O)c2ccc(Br)s2)cc1	17.7%
Cc1cc2ccccn2c1C(=O)c1ccc(S(=O)(=O)N(C)C)cc1	-10.1%
COc1ccc(C(=O)NCc2cn3ccsc3n2)cc1OC	-6.7%
COc1ccccc1S(=O)(=O)CC(O)COc1ccccc1Cl (configuration not stated)	-20.5%
Cn1cnnc1SCC(=O)c1cc2ccccc2o1	18.9%
CS(=O)(=O)N1CCN(c2ccccc2[N+](=O)[O-])CC1	1.7%
O=S(=O)(Cc1ccccc1)Nc1ccc(F)cc1	9.5%
CC(=O)Nc1ccc(NC(=O)c2cccc3c2-c2ccccc2C3=O)cc1	-13.5%

This is a subset; the hit share may differ from the screen's.
